Compound activity as filed in PubChem.
HCMV UL50-53 inh: cytomegalovirus nuclear egress complex inhibition. HTRF UL50-UL53 interaction, normalized percent inhibition. inhibition, % (test concentration not listed). 190,000 tested, 0.15% active. AID 1918969;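 active = both replicates at 50% or more, plus weaker picks with an unusually low signal ratio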;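 note: stock transfer was 100 nL into about 20 µL; 0% = negative control wells and 100% = wells with untagged competitor protein; inactives centre near -12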
GIV-Gai inh: GIV-Galpha-i interaction inhibition; P08753; Galpha-i3/FITC-GIV peptide fluorescence polarization, 90 min; hits give low values; scaled: aluminum fluoride 0%, vehicle 100%; percent of control (FP), % (concentration not given with the values); 210,000 tested, 0.42% active;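 active = replicate mean at 85% of control or lower, very high polarization wells dropped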;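 note: wells of about 15 µL received 100 nL stock; the first replicate is given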
Target sequence (P08753 whole entry, looked up): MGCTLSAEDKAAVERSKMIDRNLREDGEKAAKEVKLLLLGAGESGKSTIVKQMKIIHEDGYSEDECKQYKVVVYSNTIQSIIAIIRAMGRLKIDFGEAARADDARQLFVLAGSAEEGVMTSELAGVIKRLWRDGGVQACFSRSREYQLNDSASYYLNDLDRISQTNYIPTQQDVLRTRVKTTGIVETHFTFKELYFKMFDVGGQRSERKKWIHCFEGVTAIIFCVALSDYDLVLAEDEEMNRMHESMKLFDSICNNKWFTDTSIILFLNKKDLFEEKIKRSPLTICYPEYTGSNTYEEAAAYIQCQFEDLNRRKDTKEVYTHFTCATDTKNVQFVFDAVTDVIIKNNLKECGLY
Sa growth inh: inhibitors of Staphylococcus aureus growth at 42 °C; AID 720641; relative growth, % (concentration not given with the values); 170,000 tested, 0.53% active; S. aureus RN4220 growth, OD600, 20 h; hits give low values;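 active = growth at 42 °C up to 50% and 20 or more points under that at 30 °C, or under 10% at both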;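 note: 300 nL library stock went into each well; scaled to the means of positive and negative controls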
Sa growth inh second temp: further read-out of Sa growth inh, marked with its call; relative growth, %; measured here: growth at 30 °C;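 optical density after 20 h as mean of two plates; 100% = untreated growth and lower means inhibition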
Starred values were filed as active, the others as inactive; x = not tested or not shown; & = joins results of further samples.

SMILES	HCMV UL50-53 inh	GIV-Gai inh	Sa growth inh	Sa growth inh second temp
CCOc1ccc(CCNc2nc3c(S(=O)(=O)c4ccccc4)nnn3c3ccccc23)cc1OCC	-14	103	x	x
SCCNc1n[nH]c(Nc2ccccc2)n1	-12	x	100	80
C1=C2CCc3c([nH]c4ccccc34)C2N(c2ccccc2)N1 (stereo not given)	x	100	80	47
Cc1cc2c(n1-c1ccc(C(=O)NC(C)c3ccccc3)cc1)CCCC2 (stereo not given)	x	110	95	76
O=C(Nc1ccc(NC(=O)c2ccc(Br)c(S(=O)(=O)N3CCCCC3)c2)cc1)c1ccccc1	-9	106	x	x
COC(CNC(=O)c1cccc2c1C(=O)N(Cc1cccnc1)C2)OC	x	104	91	95
Cc1cccc(C)c1OCc1nnc2c3cnn(Cc4ccccc4)c3ncn12	-14	97	x	x
CCOCCCNC(=O)Cc1csc2nc(-c3ccc(Cl)cc3)cn12	-8	97	x	x
COc1ccc(CCNCC(O)Cn2c3c(c4ccccc42)CCN(C)C3=O)cc1OC (stereo not given)	0	99	84	89
O=C(c1cccc(F)c1)N1CCN(CCO)CC1	2	103	84	93
CC(=O)c1cc(-c2ccccc2)n(CCC(=O)Nc2ccc(C(C)C)cc2)c1C	x	101	125	95
Cc1ccc2[nH]c3nc(NN)nnc3c2c1	-79	99	104	74
CCOc1ccccc1NC(=S)N(Cc1c[nH]c2ccccc12)C(C)C	x	104	95	85
O=C(CN1C(=O)CCSc2ccc(S(=O)(=O)N3CCCC3)cc21)Nc1ccccc1	x	104	87	87
COc1ccc(NC(=O)COC(=O)CSc2nc3ccccc3n2Cc2ccccc2)cc1	-25	105	x	x
O=C(NCc1cccc(F)c1)c1ccc2nc(N3CCCCC3)sc2c1	-35	101	93	84
COc1cc(C(=O)N2CCc3c([nH]c4ccccc34)C2c2ccccc2)cc(OC)c1OC (stereo not given)	x	103	85	95
c1csc(-c2ccn3cnnc3n2)c1	-111	105	98	89
COC(=O)C1=NNC(C(=O)OC(C)(C)C)C1c1ccccc1 (stereo not given)	3	x	81	96
CC(=O)c1ccc(NC(=O)c2cc3sccc3n2Cc2ccc(F)cc2)cc1	-8	99	107	90
CCSCCOC(=O)C1=C(C)NC2=C(C(=O)CC(c3ccccc3)C2)C1c1ccc(OC)c(OC)c1 (stereo not given)	-9	102	x	x
CN(CCN)Cc1ccccc1	-3	98	84	93
O=C(CCN1C(=O)C2C3C=CC(C3)C2C1=O)NC1CCCc2ccccc21 (stereo not given)	19	107	95	94
Oc1ccccc1-c1nnc(SCc2ccccc2)n1-c1ccccc1	x	103	121	98
COc1ccc(CN2CCCC(C(N)=O)C2)cc1 (stereo not given)	7	107	92	85
O=C(Cn1nc(N2CCN(c3ccccc3)CC2)ccc1=O)Nc1ccc(F)cc1F	x	101	81	90
COc1cc2ncnc(NCCO)c2cc1OC	-3	105	112	98
CC(C)n1c(=O)c(=O)[nH]c2cc(-c3noc(-c4ccc(Br)cc4)n3)ccc21	-22	105	x	x
CCCOc1ccc(C=Nc2ccc(N3CCN(C)CC3)cc2C)c(O)c1	-6	x	106	96
COC(=O)C(C)NC(=O)N1CCN(c2nnc(C)c3c(C)n(-c4ccc(Cl)cc4)nc23)CC1 (stereo not given)	x	110	100	88
COc1ccc(C2C3=C(CCCC3=O)OC3=C2C(=O)CCC3)c(OC)c1	-9	99	x	x
CCOC(=O)CC1(O)CCOC(C)(C)C1 (stereo not given)	3	x	89	88
N#Cc1c(-c2cccs2)nc(Nc2ccccc2)[nH]c1=O	-20	99	98	80
Nc1nnc(CCS(=O)(=O)c2cc(Cl)ccc2Cl)s1	10	103	74	88
CN(C)C(=O)c1cc2cccnc2n(Cc2ccc(F)cc2)c1=O	-1	108	x	x
CCOC(=O)c1sc(CS(=O)(=O)c2ccccn2)nc1C	0	99	105	92
COc1ccc(C2=NC3(CCN(Cc4cccc(OC)c4)CC3)NC2=O)cc1	-16	105	108	90
CCC(C)(C)NC(=O)C1CCC(CNS(=O)(=O)c2ccc3c(c2)CC(C)N3C(C)=O)CC1 (stereo not given)	x	103	105	87
O=C(Nc1ccc(Cl)cc1)N1CCN(C2=Nc3ccccc3Oc3ccccc32)CC1	-23	100	x	x
CCC(NC(=O)c1ccccc1NC(=O)c1ccccc1)C(=O)N1CCN(C)CC1 (stereo not given)	-8	105	x	x
O=C(c1sc(N2CCOCC2)nc1-c1ccccc1)c1c[nH]c2ccccc12	x	104	71	37
CCN(CC)S(=O)(=O)c1ccc2[nH]cc(C(=O)NCCCN3CCCCC3)c(=O)c2c1	5	107	90	94
O=C(CSc1nnc(-c2cccc(F)c2)c(-c2cccc(F)c2)n1)NC1CCCCC1	x	101	106	91
COC(=O)c1ccc2c(c1)C(=O)/C(=C/c1ccc(O)cc1)O2	x	170	94	83
Cc1cc(N2CCN(c3ccc(F)cc3)CC2)n2nc(-c3cccnc3)nc2n1	-15	97	x	x
COc1ccc(N(C)C(=O)c2cn(C3CCCC3)c(=O)c3c2c2ccccc2n3C)cc1	x	100	111	100
CC1=C(C(=O)OCC2CCCCC2)C(c2ccccc2OCc2ccccc2)NC(=O)N1 (stereo not given)	-1	102	x	x
O=C(O)c1nn(Cc2ccccc2)nc1C(=O)O	-5	x	95	86
Cc1nc2cc(-c3ccccc3)nn2c(C)c1CCC(=O)NC(C)c1ccc2c(c1)OCCO2 (stereo not given)	-6	105	95	91
COc1ccccc1C(=O)Nc1c(C(=O)N2CCN(c3ccccc3F)CC2)oc2ccccc12	x	104	94	102
Cc1cc(C)c2c(-n3cccc3)nn(CC(=O)Nc3ccccc3Cl)c2n1	-31	105	x	x
CCC(C)N1CC(C(=O)NCCc2ccc(Cl)cc2)CC1=O (stereo not given)	6	103	76	82
COc1ccccc1N(CC(=O)NCc1ccco1)S(C)(=O)=O	x	102	115	81
O=C(O)c1ccc(-c2ccc(Br)cc2)cc1	x	102	96	92
COc1ccc(Nc2nc(N3CCN(S(C)(=O)=O)CC3)nc3ccccc23)cc1	-6	x	91	82
Cc1ccccc1NC(=O)CSC1CCCCC1	10	107	123	103
COc1ccc(-c2nc3ccccc3c3nnc(SCc4cn5ccccc5n4)n23)cc1	1	107	x	x
Cc1ccc(-n2nnc(C(=O)NCC3CCCO3)c2N)cc1F (stereo not given)	x	109	101	71
COc1cc2nc(NC(=O)c3cccs3)sc(=O)c2cc1OC	-4	107	99	100
Cc1nnc(Nc2ccc3c(c2)nc(C)n3Cc2ccccc2)c2ccccc12	-23	98	x	x
The results go on:
SMILES	HCMV UL50-53 inh	GIV-Gai inh	Sa growth inh	Sa growth inh second temp
Fc1ccc(CSc2nnc3n2CCN3c2ccccc2)cc1	-25	99	x	x
O=C(NC1=NCCCCCN1)c1ccccc1Cl	-8	x	85	91
CCOc1ccc(NC(=S)N(Cc2cn(CC)c3ccccc23)C(C)C)cc1	x	105	91	87
N#Cc1cccc(NC(=O)CCc2nc(-c3cccs3)no2)c1	0	102	94	83
Cn1nnc2c(NCCc3ccccc3)ncnc21	x	94	101	83
O=C1CCC(=O)N1CC(=O)N1N=C(c2ccc(Cl)cc2)CC1c1ccco1 (stereo not given)	-32	x	65	52
COc1ccc(C2CC(=O)N(c3ccccc3)C3=C2C(=O)OC3)cc1OC (stereo not given)	3	108	95	94
CCN(CC)CCCNc1nc2cc(OC)c(OC)cc2c2nc(-c3ccccc3)nn12	x	103	104	88
Cc1nnc(NC2CC2)c2c1nnn2Cc1ccc(F)cc1	-7	106	104	85
CC(=O)Nc1cccc(Oc2nnc(-c3ccc(C)c(C)c3)c3ccccc23)c1	-6	102	x	x
COCc1nnc(NC(=O)Cc2ccccc2)s1	-10	x	91	55
CCN(CC)c1ccc(C(=O)OCC(=O)c2ccco2)cc1	-21	x	95	92
O=C(CSc1ncc(-c2ccc(Br)cc2)[nH]1)N1CCOCC1	-8	x	101	94
Cc1cc(C)c(S(=O)(=O)Nc2cc(C(=O)O)cnc2N(C)CCCc2c(C)nn(C)c2C)cc1C	-10	113	x	x
COc1cc2oc(=O)c(CC(=O)NCc3ccc(OC)c(OC)c3)c(C)c2cc1Cl	-38	97	103	85
CCn1c(=O)c2cc(C(=O)N3CCN(C(=O)c4ccco4)CC3)sc2c2ccccc21	-27	104	102	71
Cc1cccc(N(C)C(=O)CCn2ccc(C)n2)c1	-18	97	107	87
COc1ccc(OCC(=O)N2c3ccccc3C(Nc3ccccc3)CC2C)cc1 (stereo not given)	3	100	x	x
COc1ccc(CCNC(=O)c2cc(=O)[nH]c3ccc(S(=O)(=O)N4CCCCC4)cc23)cc1OC	x	104	115	86
CN(CC(=O)N1CCCCC1)c1nnc(N2CCCC2=O)s1	-13	104	106	90
COc1ccc(-c2nnsc2N)cc1	-8	111	113	84
O=C(NCc1cccc(Cl)c1)C1CCN(c2nn3cc(-c4ccc(F)cc4)nc3s2)CC1	x	99	98	80
O=C(NC1CC(=O)N(c2ccc(Cl)cc2)C1)c1cc2ccccc2o1 (stereo not given)	x	97	111	94
Oc1ccc(-c2nc(-c3ccccc3)c(-c3ccc(Br)cc3)[nH]2)cc1	-17	106	81	57

Part of the list above in order of length of the SMILES, descending.
SMILES	HCMV UL50-53 inh	GIV-Gai inh	Sa growth inh	Sa growth inh second temp
Cc1cc(C)c(S(=O)(=O)Nc2cc(C(=O)O)cnc2N(C)CCCc2c(C)nn(C)c2C)cc1C	-10	113	x	x
O=C(NCc1cccc(Cl)c1)C1CCN(c2nn3cc(-c4ccc(F)cc4)nc3s2)CC1	x	99	98	80
Oc1ccc(-c2nc(-c3ccccc3)c(-c3ccc(Br)cc3)[nH]2)cc1	-17	106	81	57
O=C(CSc1ncc(-c2ccc(Br)cc2)[nH]1)N1CCOCC1	-8	x	101	94
CN(CC(=O)N1CCCCC1)c1nnc(N2CCCC2=O)s1	-13	104	106	90
Cc1cccc(N(C)C(=O)CCn2ccc(C)n2)c1	-18	97	107	87
COc1ccc(-c2nnsc2N)cc1	-8	111	113	84

Entries of single compounds, quoted from the list. Order of values: HCMV UL50-53 inh | GIV-Gai inh | Sa growth inh | Sa growth inh second temp
`COc1cc2oc(=O)c(CC(=O)NCc3ccc(OC)c(OC)c3)c(C)c2cc1Cl` is entered as -38 | 97 | 103 | 85
`Cc1cccc(N(C)C(=O)CCn2ccc(C)n2)c1` is entered as -18 | 97 | 107 | 87
`O=C(NC1CC(=O)N(c2ccc(Cl)cc2)C1)c1cc2ccccc2o1` (stereo not given) is entered as x | 97 | 111 | 94
`Oc1ccc(-c2nc(-c3ccccc3)c(-c3ccc(Br)cc3)[nH]2)cc1` is entered as -17 | 106 | 81 | 57
`Cc1cc(C)c(S(=O)(=O)Nc2cc(C(=O)O)cnc2N(C)CCCc2c(C)nn(C)c2C)cc1C` is entered as -10 | 113 | x | x

Further records:
SMILES	HCMV UL50-53 inh	GIV-Gai inh	Sa growth inh	Sa growth inh second temp
N#C/C(=C\c1ccc2c(c1)OCO2)c1ccccc1	-17	103	110	74
COC1C(OC)N(S(=O)(=O)c2ccc(C)cc2)CCN1S(=O)(=O)c1ccc(C)cc1 (stereo not given)	-2	x	95	109
COc1ccccc1N1CCN(S(=O)(=O)c2cc(-c3cc(C)no3)ccc2C)CC1	x	104	98	90
CC1N(C(=O)N(C)C)CCN1S(=O)(=O)c1ccccc1 (stereo not given)	4	104	102	80
COC(=O)c1sccc1S(=O)(=O)N(CC(=O)NCc1ccc(F)cc1)c1ccc(Cl)cc1	x	98	85	87
CCN1C(=O)c2cccc3c(NC(C)=O)ccc1c23	-44	x	107	84
Cc1ccc(-c2cc(C(=O)N/N=C/C=C/c3ccccc3)n[nH]2)o1	-39	101	87	84
Cc1ccccc1-n1c(N)cc(=O)n(Cc2cccs2)c1=O	-15	101	100	91
C#CCn1cnc2c(cnn2-c2ccc(F)cc2)c1=O	-26	105	105	85
Cc1cc(C(=O)NN2CCN(C)CC2)cs1	-10	98	112	99
CCCCc1ccc(N2C(=NC(=O)CC)SC3CS(=O)(=O)CC32)cc1 (stereo not given)	-15	105	86	70
CN(Cc1ccccc1)c1ncc(C(=O)O)cc1NS(=O)(=O)c1ccc(Br)cc1	-15	132	x	x
Cc1ccccc1NC(=O)Cn1c(=O)n(Cc2ccco2)c(=O)c2ccc(C(=O)NC3CCCC3)cc21	-10	105	105	86
CCOC(=O)c1ccc2nc(-c3ccc(F)cc3)cc(OCC(=O)Nc3ccc(OC)cc3)c2c1	-32	107	x	x
CC1CCN(S(=O)(=O)c2ccc3c(c2)CCN3C(=O)Nc2ccc(Br)cc2F)CC1	-1	108	103	95
O=[N+]([O-])c1c(Nc2ccc(-c3ccccc3)cc2)cc(N2CCOCC2)c2nonc12	-6	115	x	x
O=C(CN1C=NS(=O)(=O)c2ccccc21)Nc1ccccc1F	x	105	99	90
NNC(=O)c1cccc(Cn2cccn2)c1	-10	x	96	103
O=C(CCc1nc(-c2ccccn2)no1)Nc1ccccc1	-11	106	x	x
Cc1oc2ccc(O)c(CN3CCCC3)c2c1C(=O)NC1CCCCC1	-9&-26	103&98	86	90
N#Cc1cnn(-c2ccc(F)cc2)c1NC(=O)C1CCCCC1	-7	99	96	84
COc1ccc(OC)c(-n2c(-c3ccc(Cl)cc3)cn3c4c(=O)n(C)c(=O)n(C)c4nc23)c1	-28	104	x	x
CCOc1ccc(NC(=O)CN2C(=O)COc3ccc(S(=O)(=O)NC4CCCC4)cc32)cc1	x	100	95	83
COc1ccccc1/C=C/c1onc(C)c1S(=O)(=O)N1CCC(C(=O)N2CCC(C)CC2)CC1	x	108	109	88
Cc1ccc(-c2nnc(N3CCN(S(C)(=O)=O)CC3)c3ccccc23)cc1	-45	100	93	90
